gsp ag: activates gsp, the McCune-Albright syndrome mutation; Potency, µM (highest dose often 76.9 µM), for inactives: top-dose activation (cAMP increase), hits mostly activators; 340,000 tested, 0.13% active; gsp mutant cells, cAMP HTRF, 30 min; control for the full effect not named in the record; active = well fitted activation curve with a large enough effect; inconclusive = small, poorly fitted or top-dose-only effect, or another doubt; inactive = no such curve, though single readings can be large or run the other way; cell line not stated here;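 also: phosphodiesterase inhibitor Ro 20-1724 added with compounds to block cAMP breakdown; potency is read from the fitted curve at half-maximal effect; nearly all actives have a fitted effect of over 60% in size; about a fifth of the inactives were tested at one dose only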
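Cells in DMEM/10% FBS with G418 were pretreated with compounds in DMSO plus […] (300 uM stock) for 30 min at 37C. cAMP was measured by HTRF (cAMP-d2 plus anti-cAMP antibody-K) after 30 min at room temperature.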
ClpP mod: qHTS Assay for Activators of ClpP. ATP-dependent Clp protease proteolytic subunit (Bacillus subtilis (strain 168)), P80244. purified B. subtilis ClpP, FRET peptide cleavage, 20 min. Potency, µM (highest dose often 57.5 µM), inactives show top-dose activity change, negative = active. 340,000 tested, 1.9% active. AID 651965, 2013; active = well fitted falling curve with a large enough effect; inconclusive = small, poorly fitted or top-dose-only effect; inactive = no such curve, though single readings can be large or run the other way; also: potency is read from the fitted curve at half-maximal effect; the source files actives as falling curves though it sought activators and does not explain the sign; nearly all actives have a fitted effect of over 65% in size; many hits overshoot -100%
Target sequence (P80244 whole entry, looked up): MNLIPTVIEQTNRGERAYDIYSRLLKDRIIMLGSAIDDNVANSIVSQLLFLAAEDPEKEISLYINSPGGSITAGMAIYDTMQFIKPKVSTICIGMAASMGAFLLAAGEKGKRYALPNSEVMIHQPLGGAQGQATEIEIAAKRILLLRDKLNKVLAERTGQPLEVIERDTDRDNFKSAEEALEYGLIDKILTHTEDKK
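FRET quenching reversal measured ClpP activation: 10 microg/mL B. subtilis ClpP at pH 8 with the FRET-FV decapeptide, read at 430 nm after 320 nm excitation. The 20-min minus 0-min signal was scaled between DMSO/no-enzyme wells and ADEP (5.8 microM final).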
gsp antagonist: antagonists of gsp mutant (McCune-Albright syndrome); gsp-mutant cells, cAMP HTRF, 30 min; control for the full effect not named in the record; Potency, µM (titrated, usually from 76.9 µM), without a hit: at the top dose activity change, negative = inhibition, actives largely listed as inhibitors; 340,000 tested, 0.4% active; active = falling curve of any shape with a large fitted effect; inconclusive = falling curve, mostly with a smaller effect; inactive = flat or rising curve; cell line not stated here;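 also: intracellular cAMP measured with PDE inhibitor Ro 20-1724 present during compound exposure; potency is read from the fitted curve at half-maximal effect; % is scaled to controls: 0 for no effect and ±100 for the full control effect; nearly all actives have a fitted effect of over 65% in size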
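HTRF cAMP read-out (cAMP-d2 plus anti-cAMP antibody-K in lysis buffer, 30 min RT). Before lysis, cells are exposed to compounds with […] for 30 min at 37C in DPBS containing Ca/Mg, BSA and Tween 20.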
TRPML1 agonist: human mucolipin-1 channel agonism. Q9GZU1. TRPML1-expressing cells, Ca2+ dye fluorescence, FDSS; host cell line not named in the record; reference of the full effect not given here. activation, % (concentration not given with the values). 410,000 tested, 0.12% active. AID 624414; in the data active = activation above about 50%; inconclusive = about 30% to 50%; inactive = below about 30%; also: 0% is about no effect; the text of the record puts the active cut at 80%
Target sequence (Q9GZU1 whole entry, looked up): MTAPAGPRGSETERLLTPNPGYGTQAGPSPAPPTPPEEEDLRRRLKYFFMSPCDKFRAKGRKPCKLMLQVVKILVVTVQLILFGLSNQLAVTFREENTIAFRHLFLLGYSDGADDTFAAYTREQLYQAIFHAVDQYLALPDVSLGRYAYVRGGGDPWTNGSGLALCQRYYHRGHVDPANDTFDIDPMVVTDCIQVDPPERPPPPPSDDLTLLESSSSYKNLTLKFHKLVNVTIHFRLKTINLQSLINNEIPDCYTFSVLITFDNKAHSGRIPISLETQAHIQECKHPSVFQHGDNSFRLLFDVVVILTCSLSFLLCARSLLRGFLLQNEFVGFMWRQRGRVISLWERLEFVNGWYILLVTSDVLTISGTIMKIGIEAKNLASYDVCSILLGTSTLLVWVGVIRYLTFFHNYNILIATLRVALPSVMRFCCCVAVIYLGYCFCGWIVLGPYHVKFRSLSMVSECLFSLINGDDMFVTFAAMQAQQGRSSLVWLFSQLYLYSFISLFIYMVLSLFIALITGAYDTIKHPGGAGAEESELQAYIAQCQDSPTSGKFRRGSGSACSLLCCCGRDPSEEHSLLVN
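Kinetic FDSS Ca2+ read in Tet-induced TRPML1-DL cells (ABD Ca8 dye plus quencher, 45-90 min RT loading): baseline, then compound, then 110 s agonist window; EC80 agonist 54-4 at 4uM final added afterwards for a 110 s antagonist window.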
TRPML1 blocker: human mucolipin-1 channel inhibition | Q9GZU1 | TRPML1-inducible cells, Ca2+ dye fluorescence, FDSS; active compounds read low; inhibition of EC80 agonist-evoked calcium signal | activity change, negative = inhibition, % (concentration not given with the values) | 390,000 tested, 0.02% active | AID 624415; in the data active means activity change below about -50%; inconclusive means about -30% to -50%; inactive means above about -30%;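 also: stimulus is agonist 54-4 at its EC80 concentration; % is scaled to controls: 0 for no effect and ±100 for the full control effect; the text of the record puts the active cut at -80%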
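TRPML1-DL cells, Tet-induced overnight (~16 h, 37 °C) at 1,500 cells/well, were loaded with Ca8 no-wash dye plus quencher for 45-90 min at room temperature. Compounds were pinned during FDSS kinetic reading; agonist 54-4 at EC80 (4 uM final) then added.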
Menin-MLL FL inh: displaces fluorescein MLL peptide from human menin | Fluorescence polarization, fluorescein-MLL peptide displacement from menin | FP activity change, % at 61.4 µM | 290,000 tested, under 10 active | AID 1766; inconclusive = falling polarisation curve, or a change in total fluorescence; inactive = total fluorescence flat and polarisation flat or rising; no compound was filed as active; the % refers to the polarisation; negative = inhibition;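 also: % of control where 0% means no effect; inhibitors lower the polarisation; unlabelled MLL peptide was the positive control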
* marks the source's active call; other numbers are inactive results; ? = inconclusive; / = no result given; [ ] = dose if it differs, or a comment. Not a hit list. About 2.1% of those tested had a hit in this group.

Values run as follows: gsp ag | ClpP mod | gsp antagonist | TRPML1 agonist | TRPML1 blocker | Menin-MLL FL inh
Cc1ccc(S(=O)(=O)NCC(=O)N(CC(=O)NCC2CCCO2)Cc2ccc(Cl)cc2)cc1 (centres undefined)
  ? | / | 0% | 0.0 | 0 | 7.3
NC(=O)Nc1ccc(C(=O)OCC(=O)N2CCc3ccccc3C2)cc1
  38% | -1.6% | 6% | 1.5 | 8 | /
c1ccc2[nH]c(NCCCN3CCOCC3)nc2c1
  10% | 1.2% | 6% | 0.1 | 2 | 3.8
CC(=O)c1cccc(-c2ccnc3c2CC(C(=O)Nc2ccc(Cl)cc2)O3)c1 (centres undefined)
  / | -0.7% | / | -0.5 | -20 | /
N#Cc1cn(N2CCCCC2)c(=O)[nH]c1=O
  1%[15.4 µM] | / | 2% | 0.1 | -12 | 6.5
Cc1cccc(C)c1OCC(O)CN1CCN(C(=O)c2ccccc2)CC1 (centres undefined)
  -66%[inhibitor] | 0.1% | / | -0.8 | 1 | /
COc1ccc(CCNC(=O)C2COc3ccccc3C2)cc1OC (centres undefined)
  / | -1.3% | / | -0.6 | -10 | /
COc1cccc(CNC(=O)COCc2cc(-c3ccc4c(c3)OCO4)on2)c1
  / | -23% | / | 2.1 | -15 | /
COc1ccc(Nc2nc(N)nc(CN3CCOCC3)n2)cc1
  -2% | -1.3% | 2% | 3.5 | 3 | 5.6
COc1ccc(CNC2CC(C)N(C)CC2C)cc1OC (centres undefined)
  -24% | / | 12% | 0.1 | 3 | -3.8
CCn1c(=O)c(C(=O)Nc2nc3ccccc3[nH]2)c(O)c2ccccc21
  -6% | -9.4% | 3% | -1.3 | -6 | -6.6
CC(C)CCNC(=O)CN(Cc1ccc2c(c1)OCO2)C(=O)CCC(=O)Nc1ccccn1
  -4% | 0.8% | -7%[15.4 µM] | -0.1 | -6 | -2.3
O=C(O)c1cccc(Nc2ccncc2[N+](=O)[O-])c1
  14% | / | 7% | -0.8 | -8 | 4.1
CCCc1cc(CN(C)C(=O)CC2C(=O)NCCN2Cc2ccccc2C)[nH]n1 (centres undefined)
  16% | -20% | -1% | 0.8 | 4 | /
CC(C)c1ccc2c(c1)-c1ccccc1S(=O)(=O)N2CC(=O)N1CCCCC1
  / | -1.3% | / | 0.0 | -16 | /
CCc1ccc(C2=C(C)C(N3CCC(C(=O)Nc4cccc(OC)c4)CC3)=NS2(=O)=O)cc1
  / | -0.7% | / | 3.3 | 39 | /
O=C(Cn1cncn1)NCc1cccc(OC(F)F)c1
  13%[15.4 µM] | / | 17% | 0.2 | 23 | -5.0
O=[N+]([O-])c1ccccc1S(=O)(=O)Nc1ccc2c(c1)OCCO2
  -25% | -3.1% | -5% | / | / | 0.0
O=C(NCCCO)/C(=C\c1ccco1)NC(=O)c1ccco1
  ? | 1.2% | -3% | / | / | 1.1
COc1ccc(-c2nn(-c3cccc(F)c3)c3c2cnc2cc(OC)c(OC)cc23)cc1
  / | -10% | / | 1.8 | -21 | /

Part of the list above in another layout:
smiles,gsp ag,ClpP mod,gsp antagonist,TRPML1 agonist,TRPML1 blocker,Menin-MLL FL inh
CCc1ccc(C2=C(C)C(N3CCC(C(=O)Nc4cccc(OC)c4)CC3)=NS2(=O)=O)cc1,/,-0.7%,/,3.3,39,/
O=C(Cn1cncn1)NCc1cccc(OC(F)F)c1,13%[15.4 µM],/,17%,0.2,23,-5.0
O=[N+]([O-])c1ccccc1S(=O)(=O)Nc1ccc2c(c1)OCCO2,-25%,-3.1%,-5%,/,/,0.0

Going on with the list.
Values run as follows: gsp ag | ClpP mod | gsp antagonist | TRPML1 agonist | TRPML1 blocker | Menin-MLL FL inh
COc1cc(C(=O)N2CCN(C(=O)c3ccccc3)CC2)cc(OC)c1OC
  -1% | 0.6% | -2% | -0.1 | 1 | 1.6
COc1cc(CNC2CCCC2)cc(Cl)c1OCc1ccccc1F
  -37%[inhibitor] | 1.2% | 4% | 2.8 | 2 | 0.8
CC(=O)NCC(=O)OCC(=O)c1ccc(C)c(C)c1
  -3% | -2.4% | 1% | 0.1 | -3 | 1.1
C/C(N)=C(/C#N)C(=O)CSc1nnnn1-c1ccc(C)cc1C
  -12% | -1.2% | ? | -0.1 | 11 | -2.1
CCOC(=O)CSc1nc(C)cc(C)c1C#N
  10% | -3.4% | -3% | -1.5 | 1 | -1.3
Cn1c(SCc2cccnc2)nc2cccnc21
  -4% | 0.2% | 0% | -0.5 | 7 | 0.6
O=c1oc2ccccc2n1Cc1cccc(C(F)(F)F)c1
  -1%[15.4 µM] | -0.7% | 12% | -0.6 | 4 | /
CCOC(=O)c1ccc(NC(=O)c2nc[nH]c2C(=O)N(C)Cc2ccccc2)cc1
  2% | -8.9% | ? | -0.3 | 5 | 2.6
CC(=O)Nc1cc2c(cc1C(=O)c1ccccc1)OCCO2
  -3% | 0.5% | 0%[15.4 µM] | 0.6 | 36 | 2.2
COc1ccccc1CNc1ccccc1F
  15% | / | -4% | 1.5 | -14 | 2.6
COCc1c(C(=O)OCc2nc3ccsc3c(=O)[nH]2)oc2ccccc12
  ? | -6.9% | 7% | -0.5 | -13 | /
O=C1CC(C(=O)N2CCc3ccccc32)CN1c1cccc(C(F)(F)F)c1 (centres undefined)
  -29% | 2.3% | -4% | 0.1 | 16 | /
Cn1nnnc1SCCNCc1ccccc1F
  -23% | 1.6% | 9% | 2.3 | -3 | -7.8
CN1CCC(=NNC(=O)c2ccc(N(Cc3ccc(Cl)cc3)S(C)(=O)=O)cc2)CC1
  2% | -1.5% | 9% | -0.3 | 10 | 3.2
CCn1cnc2c1c(=O)n(CC(=O)NCC(C)C)c(=O)n2Cc1ccccc1
  ? | -0.8% | 17% | 3.9 | -3 | -0.2
CN(C(=O)CCNC(=O)Cn1cnc2ccccc2c1=O)c1ccc(F)cc1
  -23%[15.4 µM] | / | -9% | 0.8 | 43 | -3.1
COc1ccc(NC(=O)CSc2nc(-c3ccco3)cc(C(F)(F)F)n2)cc1Cl
  / | 7.2% | / | 0.3 | -16 | /
CC(C)CNC(=O)c1cccc(NC(=O)CSc2ccc(Cl)cc2)c1
  0% | -1.7% | 3% | 3.6 | 48 | 1.3
CC(C)NC(=O)NC1C2CC3CC(C2)CC1C3 (centres undefined)
  2% | -0.6% | 2%[15.4 µM] | 1.9 | -8 | 1.5
Cc1cc(OCC(=O)NC(C)C)ccc1Cl
  -1% | / | 5% | 0.3 | -7 | -3.1
CC1C(=O)CCN(C(C)C)C1C (centres undefined)
  4% | -0.7% | 10% | -0.4 | 1 | -2.0
CCc1cccc(CC)c1NC(=O)Cn1nnc2sc3c(c2c1=O)CCCC3
  / | 0.9% | / | -0.6 | 32 | /
C=CCNc1nc(NCCN2CCOCC2)nc(N2CCOCC2)n1
  -10% | -0.6% | 13% | -0.2 | -9 | 2.5
COc1ccc(C(=O)COC(=O)Cn2nnc3ccccc32)cc1Br
  -12% | 1.1% | -18% | 1.6 | 31 | -1.8
CN(C)CCNCc1ccccc1OC1CCCC1
  1% | -1.0% | 3% | 3.5 | 9 | -0.8
CCCC(=O)Nc1cccc(NC(=O)c2ccccc2Br)c1
  -17% | 0.5% | -2% | 3.2 | 14 | 1.0
NC(=O)C1CCN(C(=O)C23CC4CC(CC(C4)C2)C3)CC1
  7% | -2.5% | -10% | 2.4 | 15 | 0.2
CCN(CC)CC(=O)n1c2c(c3ccccc31)CCCC2
  ? | 0.4% | 4% | 0.5 | 8 | 3.0
COc1ccc(S(=O)(=O)N2CCC(O)(c3ccc4c(c3)OCO4)CC2)cc1
  -58% | 0.6% | 0% | -0.1 | -1 | 3.4
CCOC(=O)Cc1csc(NC(=O)c2ccc3ccccc3n2)n1
  3% | / | -26% | 1.4 | -10 | -1.6
COC(=O)[C@@H](NCc1cccc(CN[C@H](C(=O)OC)C(C)C)c1)C(C)C
  21% | 0.4% | 5% | -0.8 | 16 | -7.7
COc1ccccc1NC(=O)CSc1ncc2c(n1)-c1cc(Cl)ccc1N(Cc1ccccc1)S2(=O)=O
  / | -10% | / | 2.9 | -17 | /
CC1CCC(NC(=O)Cn2ncc3ccccc32)CC1 (centres undefined)
  -4% | -0.9% | 7% | -0.5 | -10 | 0.0
CCOC(=O)C(CC)n1cnc2c(nnn2-c2ccc(C)cc2)c1=O (centres undefined)
  -13% | -2.5% | ? | -0.2 | 28 | -6.8
CN(C)S(=O)(=O)Nc1ccccc1F
  -8%[15.4 µM] | / | 6% | 0.8 | ? | 1.3
CC(NC(=O)c1ccc(Nc2nc3ccccc3n3nnnc23)cc1)c1ccccc1 (centres undefined)
  / | ? | / | 1.1 | 11 | /
COc1ccccc1OCCC(=O)OCC(=O)NCc1ccccc1
  -10%[15.4 µM] | 0.9% | 10% | -0.6 | -2 | 7.3
c1ccc2c(c1)CCCN2Cc1nnc2n1CCCCC2
  12% | -3.3% | -2% | -0.1 | 10 | -2.7
Cc1ccc(OCC(=O)Nc2cccc(C)n2)c(C)c1
  -38% | 0.7% | -9% | 2.8 | -13 | 0.5
O=C(C1COc2ccccc2O1)N1CCOCC1 (centres undefined)
  3% | 16µM* | 10% | -0.7 | 4 | -1.0
CC1(C(=O)NCc2ccc3c(c2)OCO3)CCN1C(=O)CCc1ccc(Cl)cc1Cl (centres undefined)
  / | 0.4% | / | -0.1 | 27 | /
Cc1c(Cl)cccc1NC(=O)C(CCS(C)(=O)=O)N1Cc2ccccc2C1=O (centres undefined)
  / | -1.0% | / | -0.2 | -14 | /
CCOC(=O)N1N=C(c2ccccc2)CC1(O)C(F)(F)F (centres undefined)
  -17% | ? | 9% | 0.8 | -12 | 2.3
Cc1cc(N2CCOCC2)n2nc(C(F)(F)F)c(-c3ccccc3)c2n1
  4%[15.4 µM] | 0.7% | 14% | -1.2 | -17 | -9.4
COCCN(C(=O)CCC(=O)Nc1cccnc1)C(C(=O)NC1CCCCC1)c1ccccc1 (centres undefined)
  ? | -0.3% | 8% | 3.1 | -1 | 2.1
Nc1ccc2nn(-c3ccccc3)nc2c1
  14%[15.4 µM] | / | 1% | 1.1 | -17 | 1.7
Cc1cc(C)nc(-n2nc(C)cc2NC(=O)CNC2CCCCC2)n1
  -8% | 0.7% | -4% | 0.0 | 4 | 1.4
O=c1[nH]c(-c2ccccc2)nnc1-c1ccccc1
  2%[15.4 µM] | / | -11% | 0.7 | 15 | -0.1
C=C(C)C(=O)NC1=NN(c2ccccc2)C(=O)C1
  25% | 2.5% | 10% | 1.0 | 17 | 0.4
COc1ccc(-n2c(=S)[nH]c3cc(C(=O)O)ccc3c2=O)cc1
  -22% | / | ? | 0.2 | 0 | 0.9
COc1cccc(C(=O)NC(=S)Nc2ccc(N(C)C)cc2)c1
  -2% | 5.2% | -11% | 0.2 | 14 | 3.6

Screening results (PubChem)
